Biofilm kill mix: clotrimazole potentiators killing C. albicans biofilm, primary screen, 4-compound mixtures; 120,000 compounds, 0.02% hits; AID 1242, 2008; inhibition, % at 7.6 µM; C. albicans biofilm persisters + clotrimazole, fluorescence viability; primary screen in compound mixtures of four per well;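 active means inhibition above 30.3% in the primary screen of four-compound pools, then above 30% when the compound was retested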;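 further: compounds exposed to preformed 24 h biofilms for 48 h; the number belongs to the whole pool; some results filed as inactive read as strong as hits; inactives centre near 12; 0% = biofilm with clotrimazole alone and 100% = kill control; retested singly at about 60 µM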
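Probe or stimulus – Clotrimazole 50 µg/mL co-treatment · System – C. albicans biofilms · Schedule – 24 h biofilm formation, then 48 h compound exposure, 37 °C · Evaluation – percent inhibition of biofilm viability · Technique – 2-h Alamar Blue fluorescence, 535/590 nm excitation/emission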
Active calls of the source: *.

SMILES	Biofilm kill mix
Cc1ccc2c(c1)C(O)(CC(=O)c1ccc(C)s1)C(=O)N2 (stereo unspecified)	-0.2
O=C(Cn1cnc2scc(-c3cccc([N+](=O)[O-])c3)c2c1=O)NCc1ccco1	17.1
CN(C)S(=O)(=O)c1cccc(C(=O)Nc2ccc(N3CCOCC3)cc2)c1	14.0
Cc1cc(C)nc(N/N=C2/CCCC/C2=C\c2ccccc2)n1	2.1
Cc1csc(=Nc2ccccc2)n1Cc1ccco1	10.6
CNNC(=S)Nc1cccc(C(F)(F)F)c1	19.7
NC(=O)CCCSc1nc2ccccc2[nH]1	19.6
CCn1c(-c2csc3ccccc23)n[nH]c1=S	21.9
O=C(/C=C/c1ccccc1)c1c[nH]c2ccccc12	11.4
CCOC(=O)CSc1ccc(S(=O)(=O)N2CCCCC2)cc1[N+](=O)[O-]	13.9
O=C1/C(=C/c2ccco2)CCc2ccccc21	-1.9
Cc1cccc(NC(=O)COC(=O)c2cc(C)oc2C)c1	11.7
O=C1c2ccccc2NC(c2ccco2)N1/N=C/c1ccco1 (stereo unspecified)	6.1
CC(C)(C)c1ccc(CCC2OCC(C[N+]3(C)CCOCC3)O2)cc1 (stereo unspecified)	13.6
C#CCNC(=O)C1=C[C@@H](c2ccc(Br)cc2)C[C@@H](OCCCCO)O1	5.0
CC1CCN(CCOCCSc2ccc(Cl)cc2)CC1	29.5
O=C(CNC(=O)c1ccccc1)N/N=C/c1cn[nH]c1-c1ccccc1	13.4
COc1ccc2c(CCNC(=O)c3ccc([N+](=O)[O-])cc3)c[nH]c2c1	7.9
O=c1ccc2ccccc2o1	-6.2
CCOC(=O)c1cc2c(nc1NC(=S)Nc1ccccc1)CC(C)(CC)OC2 (stereo unspecified)	5.4
O=C(Nc1ncc(Cc2ccc(C(F)(F)F)cc2)s1)c1ccc(-c2cccc([N+](=O)[O-])c2)o1	3.6
Nc1nc(-c2nonc2N)no1	12.9
CCOC(=O)C1C(=O)N(O)CC1c1cccc(Oc2ccccc2)c1 (stereo unspecified)	15.4
CCc1cc2c(=O)n3c(nc2s1)-c1[nH]c2ccc(OC)cc2c1CC3	20.5
COc1ccc(C)cc1NC(=O)c1ccc2c(SCC(=O)O)c3c(nc2c1)CCCC3	9.0

(more compounds)
SMILES	Biofilm kill mix
Cc1cc(C)nc(Oc2ccc([N+](=O)[O-])cc2)n1	-1.8
CCCC(c1nnnn1Cc1ccc(F)cc1)N1CCN(CC)CC1 (stereo unspecified)	7.2
CC(=O)Nc1ccc(S(=O)(=O)NCc2cn3ccsc3n2)cc1	15.8
CC(=O)O[C@@H]1[C@H]2[C@@H](C[C@@H](C)[C@@H]3CCC(=O)[C@@]13C)OC(=O)[C@@H]2C	6.1
O=C(COC(=O)CCc1c[nH]c2ccccc12)Nc1cc([N+](=O)[O-])ccc1Cl	-15.1
CCOC(=O)c1c(NC(=O)CSc2nnc(C)c(=O)[nH]2)sc(C)c1-c1ccc(C)cc1	15.8
COc1ccccc1N(CC(=O)NCCSc1ccccc1)S(C)(=O)=O	11.9
CC(C)=NOC(=O)c1c(C)noc1-c1snnc1C	18.2
COc1ccc(C=O)cc1Cn1cnc2c(cnn2C)c1=O	14.9
Cc1ccc(CNC(=O)CC2Sc3ccccc3NC2=O)cc1 (stereo unspecified)	21.7
CC(=O)NNC(=S)NC(=O)c1cccc([N+](=O)[O-])c1	13.2
CCNC(=O)C(=O)NCc1ccncc1	8.0
O=C(COC(=O)c1cc([N+](=O)[O-])ccc1NCCO)Nc1ccc2c(c1)OCO2	9.5
CCCCNC(=O)c1ccc(CNc2c(N3CCC(C(=O)OCC)CC3)c(=O)c2=O)cc1	16.2
CC(=O)/C(N=Nc1ccc(OC(F)(F)F)cc1)=C(\C)O	26.3
CCOc1ccccc1NC(=O)C1CCN(C(=O)c2cccs2)CC1	10.5
COc1ccc(C(C)C)cc1S(=O)(=O)Nc1ccncc1	13.4
COc1ccc(N/C=C(\C(C)=O)c2ccc(OC)c(OC)c2)cc1OC	13.8
COc1ccc(C2=NN(C(=O)c3ccccc3)C(c3cccc([N+](=O)[O-])c3)C2)cc1 (stereo unspecified)	18.8
Cc1ccc(NC(=O)c2nc[nH]c2C(=O)N[C@@H](C)c2ccccc2)cc1	15.3
BrC(=C\c1ccccc1)/C=N/N1CCN(c2ccccc2)CC1	16.5
Cc1cccc(N2C(=O)CC(SC(N)=Nc3ccccc3)C2=O)c1 (stereo unspecified)	-9.1
CC(=O)N(C(C)=O)N1C(=O)C2C3c4ccccc4C(c4ccccc43)C2C1=O (stereo unspecified)	11.7
COc1ccccc1/C=C/C(=O)OCCN1CCOCC1	16.8
COC(=O)c1cc(C(=O)OC)[nH]n1	-4.4

(listing goes on)
SMILES	Biofilm kill mix
NNC(=O)[C@@H]1C[C@@H]1c1ccccc1	19.9
CCOC(=O)CSc1nnc(CNC(=O)c2ccc(S(=O)(=O)N3CCOCC3)cc2)n1C	12.3
CCNC(=O)CN(c1ccc(Br)c(C)c1)S(C)(=O)=O	7.8
CC/C(=N\NC(=O)c1cc(C)nc2ccccc12)c1ccc(C)s1	7.5
CCCCCC(=O)Nc1ccc(-c2cn3cccnc3n2)cc1	10.6
CC(O)CNCCOc1ccccc1OCc1ccccc1 (stereo unspecified)	5.4
Cc1cc(C)n(-c2ccc(C(=O)NC3CCCCC3)cc2)n1	-4.0
COc1ccc(Oc2c(C)nc(SCC(=O)c3ccc(Cl)cc3)[nH]c2=O)cc1	19.4
Cc1ccc(CS(=O)(=O)c2nsc(C)c2C#N)cc1	12.1
Fc1ccc(C2c3cccn3CCN2C(=S)Nc2cccc(Br)c2)cc1 (stereo unspecified)	8.9
Brc1cc2c(cc1Br)OCCOCCOCCO2	14.9
Cn1c(-c2sccc2OCc2cccc(C(F)(F)F)c2)n[nH]c1=S	14.5
Cc1ccc(OCC(=O)N/N=C2/SCC(=O)N2Cc2ccccc2)cc1	18.6
Cc1c(NC(=O)c2ccc3c(c2)C(=O)N(Cc2ccco2)C3=O)cccc1C(=O)O	11.4
C=CCn1c(=NC(=O)CN2C(=O)CCC2=O)sc2cc(S(N)(=O)=O)ccc21	11.5
COCCNC(=O)C(=O)N/N=C(\C)CC(=O)Nc1ccc2c(c1)OCO2	-9.3
CC1(C)Cc2c(sc3nc(-c4ccccc4)oc(=O)c23)CO1	20.2
COC(=O)c1ccc(CSc2nnc(C)n2N)o1	17.3
NNC(=O)Cn1nnc(-c2ccc(C(F)(F)F)cc2)n1	9.2
CCN(Cc1ccccc1)C(=O)c1cc(COc2c(F)cccc2F)on1	22.6
CCC(=O)Nc1cc(C(=O)O)ccc1Sc1ccc(C)cc1	15.3
Cc1cc2cc(CNC(=S)Nc3ccc(OC(F)F)cc3)ccc2n1C	5.6
O=S1(=O)NC(=NCCc2ccccn2)c2ccccc21	15.1
COc1cccc(C2CC3(CC(C)(C)NC(=S)N3)Oc3cc(O)ccc32)c1 (stereo unspecified)	19.8
COc1cccc(/C=C/C(=O)OCC(=O)N2c3ccccc3NC(=O)C2(C)C)c1	15.6

Six entries out of the list, arranged by molar mass, lowest first:
SMILES	Biofilm kill mix
NNC(=O)Cn1nnc(-c2ccc(C(F)(F)F)cc2)n1	9.2
O=S1(=O)NC(=NCCc2ccccn2)c2ccccc21	15.1
CCN(Cc1ccccc1)C(=O)c1cc(COc2c(F)cccc2F)on1	22.6
COc1cccc(/C=C/C(=O)OCC(=O)N2c3ccccc3NC(=O)C2(C)C)c1	15.6
Fc1ccc(C2c3cccn3CCN2C(=S)Nc2cccc(Br)c2)cc1 (stereo unspecified)	8.9
CCOC(=O)CSc1nnc(CNC(=O)c2ccc(S(=O)(=O)N3CCOCC3)cc2)n1C	12.3

Back to the main list with the 4 entries that preceded the break.
SMILES	Biofilm kill mix
Cc1cc2cc(CNC(=S)Nc3ccc(OC(F)F)cc3)ccc2n1C	5.6
O=S1(=O)NC(=NCCc2ccccn2)c2ccccc21	15.1
COc1cccc(C2CC3(CC(C)(C)NC(=S)N3)Oc3cc(O)ccc32)c1 (stereo unspecified)	19.8
COc1cccc(/C=C/C(=O)OCC(=O)N2c3ccccc3NC(=O)C2(C)C)c1	15.6
Cc1ccc(NCC(=O)N/N=C/c2ccc(C(=O)O)cc2)cc1	22.6
O=[N+]([O-])c1cc(C(F)(F)F)ccc1N1CCN(S(=O)(=O)c2ccc3c(c2)CCCC3)CC1	8.4
O=C(CSc1ccc(Br)c2cccc(Cl)c12)Nc1ccc(S(=O)(=O)Nc2nccs2)cc1	24.1
FC(F)(F)c1cnc(NNC(=S)Nc2cccnc2)c(Cl)c1	-5.1
CCCc1n(CC(O)COCC2CC=CCC2)c2ccccc2[n+]1C (stereo unspecified)	6.9
Fc1ccccc1N=C1Nc2cccc3cccc1c23	-5.1
CCc1[nH]nc(C(=O)N2CCCC(CCC(=O)N3CCN(c4ccccn4)CC3)C2)c1C (stereo unspecified)	3.5
c1ccc(Cc2noc(CN3CCCC(CN4CCOCC4)C3)n2)cc1 (stereo unspecified)	4.6
Cn1c(N)c(C(=O)COC(=O)[C@H](Cc2ccccc2)N2C(=O)c3ccccc3C2=O)c(=O)n(C)c1=O	20.5
COc1ccc(NC(=O)c2nc[nH]c2C(=O)N[C@@H](C)C(=O)OC(C)(C)C)cc1	7.3
COc1ccc(CN(C(=O)c2cnccn2)C(C(=O)NC(C)(C)C)c2cc(OC)c(OC)c(OC)c2)cc1 (stereo unspecified)	7.9
NS(=O)(=O)c1cccc(NC(=O)c2cccnc2Oc2ccccc2)c1	12.5
CC(=O)NC(C)CCc1ccccc1 (stereo unspecified)	17.8
Fc1ccccc1SCc1nnc(-c2ccccc2Br)o1	3.7
CC(C)NC(=S)N/N=C1\CCCCc2ccccc21	8.4
COc1ccc(CNC(=O)COC(=O)CCOc2ccccc2)cc1	12.1
Cc1csc2c(=O)[nH]cnc12	6.9
CSc1nc2ccc(S(N)(=O)=O)cc2s1	9.1
C/C=C/C(=O)Nc1cccc(C2=NOC3(C2)C[C@@H](C(N)=O)N(C(=O)/C(C)=C/C)C3)c1 (stereo partly specified)	8.9
COc1ccc(/C=C2\CC/C(=C\c3ccc(OC)cc3OC)C2=O)c(OC)c1	18.3
CC(C)NC(=O)COC(=O)C1CSC2(c3ccc(Br)cc3)CCC(=O)N12 (stereo unspecified)	13.2
CC(=O)Nc1nnc(SCc2cccc(F)c2)s1	13.3
CN1/C(=C\C(=O)COC(=O)CNC(=O)c2ccc3ccccc3c2)C(C)(C)c2ccccc21	13.2
CCCCCCCCNC(=O)c1ccc(C)cc1	17.5
CC(=O)c1ccccc1OCCn1nnc(-c2ccc(C)cc2)n1	13.8

Next part.
SMILES	Biofilm kill mix
Cc1ccc2c(=O)[nH]c(Nc3nc(C)cc(-c4ccccc4)n3)nc2c1	8.4
CCN=C1SC(C(=O)Nc2ccc(OC)cc2)CC(=O)N1CC (stereo unspecified)	7.0
c1ccc(OCCOCCN2CCc3ccccc3C2)cc1	7.6
Cc1cc(C)cc(N(CCC(=O)O)S(=O)(=O)c2ccc(Cl)cc2)c1	2.5
NS(=O)(=O)c1ccc(CCNC(=S)NC2CCCC2)cc1	20.2
CCOc1cccc(C(=O)NC(=S)Nc2ccc3c(c2)OCCO3)c1	14.6
COc1cc(/C=N/NC(=S)NCCN2CCOCC2)cc(OC)c1O	22.6
CCOC(=O)c1cccc(NC(=O)C2(S(=O)(=O)c3ccc(Cl)cc3)CC2)c1	10.7
CCCCC(C(=O)N/N=C/c1ccccn1)C(=O)N/N=C/c1ccccn1	6.8
CC[N+]1=CN(c2ccccc2)C(C)=CC1(C)C	12.0
O=S(=O)(c1ccc(Br)cc1)n1c(Cc2ccccc2)nc2ccccc21	16.8
Cc1ccc(-n2c(C)c3c(C)nnc(C)c3c2C)cc1N	14.0
N#Cc1ccc(-c2csc(NC(=O)/C=C/c3cccs3)n2)cc1	8.1
O=C(COC(=O)c1ccc(Cl)nc1)Nc1ccc(S(=O)(=O)N2CCCC2)cc1	17.4
CN(CCN1CCc2ccccc2C1)Cc1nc(Cc2ccccc2F)no1	-11.3
CCOC(=O)c1c(C)c(C(=O)NCc2ccc3c(c2)OCO3)c(C)n1CC	19.6
CCOC(=O)c1c(C)n(CC)c2ccc(OC(=O)c3ccc([N+](=O)[O-])cc3)cc12	23.4
CN(C)C(=O)c1ccc(-c2cc(C(F)(F)F)n(C)n2)s1	0.9
Cc1nonc1-c1ccc2c(c1)OCO2	20.7
O=C(NCc1ccc(C(=O)O)cc1)OCc1ccccc1	4.7
O=S(=O)(c1ccc(Br)cc1)N1CCCN(Cc2ccccc2F)CC1	20.8
Cc1ccccc1-n1nnnc1SCc1cc(=O)n2ccsc2n1	15.2
O=C(Cn1cnc2ccccc21)Nc1ccc(F)c(F)c1	17.0
O=C(NC1CCCC1)C(c1ccncc1)N(CCCN1CCOCC1)C(=O)c1ccc(-c2ccccc2)[nH]1 (stereo unspecified)	15.3
CCN(CC)C(=O)CSc1nnc(-c2ccco2)o1	7.4

Further structures.
SMILES	Biofilm kill mix
Cc1cc(NC(=O)c2ccccc2-c2ccccc2C(=O)O)no1	17.7
COc1ccc(CNCC(=O)Nc2ccccc2-n2cccc2)cc1	11.8
CCOP(=O)(OCC)/C(=N/OC(=O)c1ccc(Cl)cc1Cl)C(N)=O	19.6
CCOc1ccc(-c2nc(N)ncc2-c2ccccc2OC)c(O)c1	21.3
O=C(N/N=C/c1ccc[nH]1)c1ccccc1OCc1ccccc1Cl	-13.0
Cc1nc2c(C)[n+](CC(=O)c3ccccc3)ccc2n1C	12.1
Cc1ccc(C)c(CSc2nc3[nH]ncc3c(=O)[nH]2)c1	12.9
O=C(Nc1cccnc1)c1ccccc1NS(=O)(=O)c1ccc(F)cc1	6.7
Cc1cc(N2CCN(C)CC2)nc2ccc(NC(=S)NC3CC3)cc12	10.2
COc1ccccc1NC(=O)c1ccc(NC(=O)COC(=O)C2CCCCC2)cc1	10.6
Cc1onc(-c2ccccc2)c1C(=O)n1cc(Br)cn1	10.8
CCc1ccc(Oc2coc3cc(OCC(=O)Nc4cc(C)ccc4C)ccc3c2=O)cc1	13.3

Screening results (PubChem BioAssay)

A portion of the library. The share of hits here may be higher or lower than overall.
